# Arbovirus anti = antivirals against arbovirus infection. arbovirus infection cell-based antiviral screen. AID 1251. inhibition, % at 10 µM. hit rate 0.37% among 200,000;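 active = inhibition from about 30%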;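 also: bluetongue infection of BSR cells; cell survival read as ATP light after 72 h; 0% = infected wells without compound and 100% = uninfected wells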
# Mtb growth = M. tuberculosis H37Rv growth inhibitors, H37Rv strain (AID 1626); inhibition, % at 10 µM, or IC50 in µM where a hit was titrated; hit rate 0.95% among 220,000; M. tuberculosis H37Rv growth inhibition; higher % means a stronger effect;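 active = confirmed in a dose series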;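 also: bacteria incubated seven days before Alamar blue readout; 0% = bacteria only wells and 100% = bacteria with antibiotic wells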
# YopH PTP inh = YopH (Yersinia) phosphatase inhibition | fluorescence Ex485/Em525 | AID 898 | inhibition, %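 (about 10 µM by stock and volumes)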 | hit rate 0.16% among 140,000;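 active = inhibition of 50% or more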;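 also: controls were vehicle for no effect and minimum signal wells for full effect; inactives centre near -20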
# Mtb bLac sens = beta-lactam sensitization of Mtb H37Rv | M. tuberculosis H37Rv growth with meropenem, percent inhibition; hits of this screen are not shown here | inhibition, % at 25 µM | hit rate 0.27% among 330,000 | AID 434955;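 active = about 74% or more and at least 40 points above the plate without the antibiotic, then above 30% in a dose series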;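 also: growth measured after seven days incubation then overnight dye step; 0% = bacteria only wells and 100% = bacteria with antibiotic; twin plates without the antibiotic show which effects depend on it; some results filed as inactive read as strong as hits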
# RecA splice inh = inhibitors of M. tuberculosis RecA intein splicing | P9WHJ3 | cell-free RecA intein splicing, fluorescence | inhibition, %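 (about 9 µM by stock and volumes)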 | hit rate 0.75% among 290,000 | AID 2221; in the data active = inhibition above about 30%;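 also: 0% = vehicle wells and 100% = reference inhibitor control wells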
# Target sequence (P9WHJ3 whole entry, looked up, canonical isoform): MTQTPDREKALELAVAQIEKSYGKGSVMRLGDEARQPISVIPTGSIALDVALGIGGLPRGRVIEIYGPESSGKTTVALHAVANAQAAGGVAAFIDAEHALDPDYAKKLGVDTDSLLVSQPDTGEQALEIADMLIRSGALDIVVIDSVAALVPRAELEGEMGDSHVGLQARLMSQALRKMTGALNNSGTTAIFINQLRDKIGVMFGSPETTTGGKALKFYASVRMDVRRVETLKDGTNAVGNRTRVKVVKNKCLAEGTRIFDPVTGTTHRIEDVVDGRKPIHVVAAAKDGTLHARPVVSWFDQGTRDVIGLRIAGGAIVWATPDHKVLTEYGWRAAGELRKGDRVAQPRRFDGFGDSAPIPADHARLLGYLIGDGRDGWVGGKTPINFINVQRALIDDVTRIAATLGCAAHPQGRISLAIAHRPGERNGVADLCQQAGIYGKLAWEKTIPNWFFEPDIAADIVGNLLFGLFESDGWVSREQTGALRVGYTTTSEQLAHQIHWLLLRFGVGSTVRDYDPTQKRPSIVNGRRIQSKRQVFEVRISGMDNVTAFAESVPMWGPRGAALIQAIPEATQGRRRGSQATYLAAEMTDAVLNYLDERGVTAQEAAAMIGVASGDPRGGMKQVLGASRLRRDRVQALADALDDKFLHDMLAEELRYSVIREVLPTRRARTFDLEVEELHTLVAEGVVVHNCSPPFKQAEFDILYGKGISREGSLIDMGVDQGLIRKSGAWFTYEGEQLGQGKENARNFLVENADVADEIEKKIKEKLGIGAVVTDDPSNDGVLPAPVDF
# Arbovirus anti repeat = also measured in Arbovirus anti; calls as there; inhibition, %; measured here: 10K subset replicate screen; many hits read low in the repeat;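 first of two repeat runs on a subset; 0% = infected and 100% = uninfected wells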
# The depositor's hits bear a star; . = not tested or not shown; & = joins results of further samples.
SMILES,Arbovirus anti,Mtb growth,YopH PTP inh,Mtb bLac sens,RecA splice inh,others
COc1ccc(S(=O)(=O)Cc2ccc(C(=O)N3CCc4ccccc4C3)o2)cc1,-1.7,-4.5%,28.9,-6.9,2.2,Arbovirus anti repeat=-3.6
COc1cccc(CN(C)CC(=O)Nc2cccc(S(N)(=O)=O)c2)c1OC,0.4,-0.9%,-38.3,-8.9,-0.1,
Cc1[nH]c2ccccc2c1SCC(=O)NC1CCCCC1,15.0,2.2%,.,1.4,.,
Cc1cccc(-n2ncc3c(N4CCCc5ccccc54)ncnc32)c1,-16.1,13.2%,-18.9,61.2,14.9,
CCOc1cc(/C=N/NC(=O)CSc2nnc(C)s2)ccc1OCc1ccccc1Cl,-19.1,7.7%,-28.7,2.2,2.2,
COC(=O)c1ccccc1NC(=O)CSc1nnc(CNS(=O)(=O)c2ccc(C)cc2)n1C,8.8,9.0%,-46.3,.,2.1,
COc1ccc(Cc2nnc(NC(=O)Cc3cccs3)s2)cc1OC,8.5,-0.4%,-27.7,7.7,-0.3,
CCN(CC)c1ccc(C=Nc2cccnc2Cl)c(O)c1,.,.,.,0.5,0.5,
COc1cc2nc3c4ccccc4n(CC#N)c3nc2cc1OC,-1.5,-4.9%,-58.8,.,-16.2,
O=C(NC1CCCCC1)c1ccc(-c2cccc([N+](=O)[O-])c2)o1,.,.,.,5.6,2.8,
CCSc1nnc(NC(=O)c2ccccc2C)s1,6.7,3.1%,.,4.0,0.8,
O=C(CCSCc1ccc(Cl)cc1)NCc1ccco1,1.6,51.1%,.,55.7,2.9,
O=C(Cc1ccc([N+](=O)[O-])cc1)N1CCc2ccccc2C1,3.6,5.8%,-32.8,3.2,1.2,
CC(C)(C)[C@@H]1C=C(C(N)=O)O[C@H](OCc2ccc(CO)cc2)C1,.,2.2%,.,53.7,0.8,
Cc1ccc(NS(=O)(=O)c2cc(C(=O)N(C)C)ccc2C)cc1C,2.5,1.2%,.,.,-2.8,
O=C(CSc1nnc2ccccn12)NCCc1ccc(F)cc1,5.1,-1.1%,.,6.1,-1.3,
Cc1cccc(NC(=S)NNC(=O)c2ccc(Br)o2)c1,-4.6,-3.3%,-37.6,-3.9,-4.9,
CCOC(=O)C1(C)NC(c2cccs2)C2C(=O)N(c3ccc(OC)cc3)C(=O)C21 (stereo not given),0.0,-5.1%,.,-4.5,-0.6,
COc1cc(NC(=O)CSc2nccc(C)n2)c(C(=O)O)cc1OC,-4.3,-3.6%,-45.1,2.6,-0.1,
COc1ccc(CNC(=O)c2onc(C)c2Cl)cc1,5.8,17.9%,-15.5,-1.9,0.4,Arbovirus anti repeat=-1.5
Cc1ccc(C(=O)COC(=O)c2ccc3c(c2)C(=O)N(c2cccc4ncccc24)C3=O)cc1,4.7,3.2%,-16.6,1.6,7.5,
Cc1ccc(-c2onc3ccc(Br)cc23)cc1,.,.,.,-1.1,7.3,
Cc1ccc(SCc2nc(-c3cccnc3)no2)cc1,-1.6,11.2%,-129.9,-6.1,3.4,
CC(=O)Nc1ccc2nc(-c3cccn3C)[nH]c2c1,.,.,.,-6.4,-3.9,
CCCOc1ccc2oc(=O)c3c(c2c1)CCCN3C(=O)CN1CCN(c2ncccn2)CC1,.,8.0%,-8.2,97.8,3.6,
CCOC(=O)C1=C(C)NC(=O)NC1c1ccccc1OCc1c(F)cccc1Cl (stereo not given),24.0,-2.8%,-2.1,0.5,1.5,
Cc1ccc(-n2c(SCC(=O)N3Cc4ccccc4CC3C(=O)O)nnc2-c2cccnc2)c(C)c1 (stereo not given),4.4,-4.1%,-9.2,-8.7,1.7,
O=C(NCc1ccc(Cl)c(Cl)c1)c1ccc2c(c1)OCO2,.,.,.,-6.5,5.0,
CC(=O)Nc1ccc(S(=O)(=O)NCCC(=O)OCc2nnc(-c3ccccc3)o2)cc1,.,.,.,2.9,-2.4,
S=C1NCCc2ccccc2C1c1ccccc1Cl (stereo not given),-10.3,-9.8%,-20.6,-2.9,13.4,

# By substructure, the compounds so far with a COOH group (two)
SMILES,Arbovirus anti,Mtb growth,YopH PTP inh,Mtb bLac sens,RecA splice inh,others
COc1cc(NC(=O)CSc2nccc(C)n2)c(C(=O)O)cc1OC,-4.3,-3.6%,-45.1,2.6,-0.1,
Cc1ccc(-n2c(SCC(=O)N3Cc4ccccc4CC3C(=O)O)nnc2-c2cccnc2)c(C)c1 (stereo not given),4.4,-4.1%,-9.2,-8.7,1.7,

# (next part)
SMILES,Arbovirus anti,Mtb growth,YopH PTP inh,Mtb bLac sens,RecA splice inh,others
O=C(CCN1C(=O)c2ccccc2C1=O)NCc1ccco1,21.9,-5.9%,-15.4,-4.2,-1.5,
Cc1cc(Cl)ccc1OCCCC(=O)NCc1cccs1,-11.3,2.9%,1.2,-3.3,1.8,
CCC(C)C(NC(=O)C(C)NC(=O)CNC(=O)OC(C)(C)C)C(N)=O (stereo not given),7.9,-6.3%,.,-2.3,-0.7,
COc1ccc(S(=O)(=O)N2CCC(C(=O)Nc3ccc(S(=O)(=O)N4CCCC4)cc3)CC2)cc1OC,.,.,.,-6.5,-3.2,
CC(=O)c1ccc2c3c(cccc13)C(=O)N(CCc1ccccc1)C2=O,2.0,4.1%,.,2.3,2.4,
CNC(=S)N(CCO)Cc1cc2cc3c(cc2[nH]c1=O)OCCO3,.,.,.,1.6,-0.7,
O=C(CSc1nnc2ncccn12)Nc1cccc2ccccc12,.,.,.,-1.3,-1.7,
CCCCc1nc2cc(C(=O)NCc3nccn3CC)ccc2o1,.,.,.,-1.7,1.4,
CCn1c(SCC(=O)NC(=O)Nc2ccc3c(c2)OCCO3)nnc1-c1cccs1,-7.0,-1.2%,-33.3,-4.2,0.3,
CN(C)/C=C/C(=O)c1ccc([N+](=O)[O-])c(CS(=O)(=O)c2ccccc2)c1,.,.,.,5.0,-1.2,
COc1ccc(/C=N/NC(=O)c2ccc3c(c2)OCO3)cc1,.,.,.,7.4,-3.7,
COc1cccc(OC)c1C(=O)N1CC(C)OC(C)C1 (stereo not given),2.7,-3.1%,-23.8,-10.0,-3.4,
O=C1/C(=C/c2ccccc2)Nc2ccccc21,-7.4,.,-23.7,-3.9,0.1,
O=C(CSc1ccccc1)N1CCN(S(=O)(=O)c2ccccc2)CC1,.,.,.,-5.7,-2.3,
Cc1cc(NC(=O)CN2CCC(C)CC2)no1,19.3,-3.7%,.,0.0,4.3,
Cc1cc(C)nc(NC(=NCc2ccc3c(c2)OCO3)NC(=O)Nc2ccccc2)n1,-16.7,-0.3%,13.2,0.8,-0.7,
Oc1ccc(Nc2ccnc3cc(Cl)ccc23)cc1,.,-0.6%,.,12.8,15.4,
Cc1ccc(N(CC(=O)NC2CCCCC2)C(=O)c2ccc(C)s2)cc1,0.4,-2.7%,-21.2,10.4,1.2,
Cc1cc(C)c(OCC(=O)OCC(=O)NCC2CCCCC2)c(C)c1,.,.,.,-1.5,9.7,
O=S1(=O)C=CC(N2CCOCC2)C1 (stereo not given),10.4,3.8%,-29.4,0.4,5.0,
O=C1c2cccnc2Oc2ccc(Cl)cc2N1Cc1ccc(F)cc1,14.8,11.6%,12.4,-4.5,0.0,
CN(C)S(=O)(=O)c1ccc(C(=O)NCCSc2ccc(Br)cc2)cc1,-13.6,11.2%,-14.3,2.1,-1.4,
Cc1nc2ccc(S(=O)(=O)N(C)CC(=O)NC(C)c3ccccc3)cc2s1 (stereo not given),.,.,.,-0.5,1.3,
Cc1cc(C)c(C(=O)/C=C/c2ccc(C(C)C)cc2)c(=O)[nH]1,-26.6,-5.6%,-37.7,.,7.2,
COc1ccc(N=C2NC(=O)/C(=C/C=C/c3ccccc3)S2)cc1,.,-0.2%,.,-3.6,-0.7,
O=C(Cc1ccccc1)NCCS(=O)(=O)N1CCN(c2cccc(Cl)c2)CC1,.,.,.,-13.1,0.8,
COc1cccc2c1OC1(C)CC2NC(=O)N1c1cccc(C(=O)N2CCN(c3ccccn3)CC2)c1 (stereo not given),11.0,-5.8%,-13.6,-8.9,-0.4,
Cc1ccccc1C(=O)NNC(=O)c1ccc(Br)cc1,2.5,-2.8%,.,-3.6,-1.7,
CCCCN(C(=O)c1ccc(N2CCCC2=O)cc1)c1c(N)n(CCCC)c(=O)[nH]c1=O,.,.,.,0.6,-0.4,
COC(=O)c1cccc(-n2nnnc2SCC(=O)Nc2cc(C)on2)c1,-1.5,0.2%,-31.5,-17.8,0.1,
CC(=O)NCCCCCCNC(C)=O,-1.9&-0.9,-3.6%&3.6%,-4.0,3.7,0.6,
CCOC(=O)C1=NN(c2ccccc2)C2C(=O)N(c3ccccc3OC)C(=O)C12 (stereo not given),.,-7.7%,.,-4.7,-28.6,
CCc1noc(C)c1C(=O)N(CCOC)c1c(N)n(CC(C)C)c(=O)[nH]c1=O,.,.,.,-17.6,-2.8,
NCCCC[C@H]1CNC(=O)C(=O)N1CCc1cc(C(F)(F)F)cc(C(F)(F)F)c1,.,-5.7%,.,-4.9,0.5,
C/C(=N\NC(=O)c1ccncc1)c1c(O)[nH]c(=O)[nH]c1=O,.,72.4%,.,97.3,0.9,
CNC(=O)NC(=O)C(c1ccccc1)N(C)CC1COc2ccccc2O1 (stereo not given),.,.,.,0.9,4.4,
CCOC(=O)C1=C(N)n2c(s/c(=C/c3ccco3)c2=O)=C(C(=O)OC)C1c1ccco1 (stereo not given),-16.3,-4.3%,0.6,-1.9,2.0,
CC(=Nc1ccc(C)cc1)c1sc2ccccc2c1O,-2.9,5.1%,14.4,13.8,-16.9,
CC1(C)CC(=O)C(Sc2nnc(-c3ccc(NS(C)(=O)=O)cc3)n2Cc2ccco2)C(=O)C1,1.3,-15.6%,-7.2,-7.4,.,
Nc1nc(F)nc2c1ncn2[C@@H]1O[C@H](CO)[C@@H](O)[C@@H]1O,-4.0,72.3%,-56.4,3.9,-3.4,
CCc1c(C)nc(N)nc1N1N=C1SCC(N)=O,2.8,-2.1%,-25.7,5.1,-0.6,
CCOCCCNC(=O)CN1C(=O)c2ccccc2Sc2ncccc21,.,.,.,-0.5,-2.4,
CCOC(=O)c1sc2ncc([N+](=O)[O-])cc2c1N,.,2.7%,.,1.0,-1.9,
Fc1cc(F)cc(NC(=S)Nc2ccccc2N2CCOCC2)c1,22.1,-6.2%,.,4.8,0.7,
CC1(C)[C@H]2CC=C(CN3CCC(N4CCC(C(=O)N5CCCC5)CC4)CC3)[C@@H]1C2,-30.2,-2.8%,.,8.8,1.5,

# 2 records drawn at random from the list so far, as already listed:
SMILES,Arbovirus anti,Mtb growth,YopH PTP inh,Mtb bLac sens,RecA splice inh,others
Cc1ccc(SCc2nc(-c3cccnc3)no2)cc1,-1.6,11.2%,-129.9,-6.1,3.4,
O=C(NCc1ccc(Cl)c(Cl)c1)c1ccc2c(c1)OCO2,.,.,.,-6.5,5.0,

# Remaining list, next part.
SMILES,Arbovirus anti,Mtb growth,YopH PTP inh,Mtb bLac sens,RecA splice inh,others
CC(OC(=O)c1cc2sccc2n1C)C(=O)NCCc1ccccc1 (stereo not given),-20.2,-3.6%,-43.5,-10.0,-0.5,
COc1ccccc1N1CCN(C(=O)c2ccc3c(=O)n(Cc4ccc5c(c4)OCO5)c(=O)[nH]c3c2)CC1,.,.,.,89.5,1.6,
O=C(O)c1ccc(S(=O)(=O)Nc2ccc(F)c(Cl)c2)cc1,9.1,-6.9%,-20.1,0.3,-1.7,
CN(C)CCCN(C(=O)c1ccc(S(=O)(=O)N2CCOCC2)cc1)c1nc2cc3c(cc2s1)OCO3,.,.,.,7.8,-1.8,
Cc1ccc(C)c(NC(=O)c2cc([N+](=O)[O-])cc([N+](=O)[O-])c2)c1,.,.,.,99.9,1.9,
COc1ccc(NC(=O)N2CCN(S(=O)(=O)c3ccc(F)cc3)CC2)c(OC)c1,.,.,.,-4.1,-1.1,
O=C(CSc1ncn[nH]1)N(C1CCCCC1)C1CCCCC1,13.6,-5.3%,-11.9,2.6,-0.8,
C/C(=N/OC(=O)c1ccc(Cl)cc1Cl)c1oc(C)nc1C,.,0.1%,.,14.4,1.1,
CCCCn1c(NCc2ccccc2O)nc2ccccc21,10.5,6.6%,-31.6,-6.8,6.8,Arbovirus anti repeat=18.2
Oc1oc(-c2cccc3ccccc23)nc1C=NCc1ccccc1,2.3,-6.6%,-25.5,.,.,
CCOc1ccc(C(=O)CN2CCN(S(=O)(=O)c3ccc(F)cc3)CC2)cc1,9.8,.,-12.7,-4.7,2.1,
CC(C)(C)NC(=O)CSc1nc2ccccc2c(=O)[nH]1,.,1.3%,.,-8.1,5.9,
COc1ccc(CCNC2=NCCS2)cc1,0.7,.,-20.2,-6.1,-0.4,
CC(C)c1ccc(S(=O)(=O)N2CCN(C(=O)c3ccco3)CC2)cc1,2.8,4.8%,.,-2.5,0.4,
O=C(CSc1nncc2ccccc12)Nc1ccc(F)cc1,.,.,.,5.0,11.5,
CCOC(=O)c1oc2ccccc2c1NC(=O)CN1CCOCC1,-2.2,-0.2%,.,-2.1,-0.3,

# These rows are one share of the data; rates above refer to the full screens.
